Bioassay records deposited in PubChem BioAssay by National Center for Advancing Translational Sciences (NCATS).
StopGo RLuc – lowers the Renilla signal of an FMDV 2A StopGo reporter. Potency, µM (top dose mostly 57.5 µM), for the others: at the highest dose signal change, negative = less light. 120,000 compounds, 0.32% hits. HEK cells with a luciferase reporter of 2A StopGo recoding; active means well fitted falling curve with a large enough effect; inconclusive means small, poorly fitted or top-dose-only effect; inactive means no such curve, though single readings can be large or run the other way; note: nearly all actives have a fitted effect of over 55% in size; overnight with compound
StopGo FLuc – lowers the firefly signal of an FMDV 2A StopGo reporter; 120,000 compounds, 0.23% hits; AID 1745856; Potency, µM (top dose mostly 57.5 µM), without a hit: at the top dose signal change, negative = less light; HEK cells with a luciferase reporter of 2A StopGo recoding; active = well fitted falling curve with a large enough effect; inconclusive = small, poorly fitted or top-dose-only effect; inactive = no such curve, though single readings can be large or run the other way; note: nearly all actives have a fitted effect of over 60% in size; overnight with compound
Active calls of the source: *; ? = inconclusive; [ ] = dose if it differs, or a comment. % is set by controls: 0 for no effect and ±100 for the full control effect; potency is the fitted concentration of half-maximal effect. Rows are unselected (roughly 0.53% active in at least one column).

SMILES	StopGo RLuc	StopGo FLuc
CC(NC(=O)c1ccc(CSc2nc3ccncc3n2Cc2ccc(F)cc2)cc1)c1ccccc1 (stereo not given)	23%	-13%
O=C(Cn1cc(SCc2ccccc2F)c2ccccc21)N1CCCC1	116%[activator]	141%[activator]
Cc1cc(C)cc(-n2c(C)nc3cc(C(=O)O)ccc32)c1	1%	4%
COc1cccc(/C=C(\C#N)c2nc3ccccc3[nH]2)c1	70%[activator]	178%[activator]
Cc1nc2ccccc2n1CCc1nc2c3ccccc3nc(SCC(=O)Nc3ccc(C(C)C)cc3)n2n1	-17%	-16%
Cc1ccc(NC(NC(=O)c2ccco2)C(=O)c2ccc(C)cc2)cc1 (stereo not given)	25%	160%[activator]
COCCN(Cc1cccs1)S(=O)(=O)c1cc(-c2cc(C)no2)ccc1C	49%[activator]	29%
O=c1c2cc3c(=O)n(C4CCCCCC4)ccc3nc2ccn1-c1ncn[nH]1	7%	34%[activator]
N#Cc1c(N)sc2c1CCc1ccccc1-2	45%[activator]	45%[activator]
Cc1c(O)cc(C(=O)/C=C/c2ccccc2)cc1Cl	-13%[1.06 µM]	51%[activator]
Cc1ccc2nc(-c3ccccc3C)cc(C(=O)O)c2c1	?	-16%
O=C(CNc1cc(Cl)ccc1N1CCOCC1)Nc1ccccc1Cc1ccccc1	20%	-15%
Cc1ccc(NC(=O)CCC(=O)N2Cc3ccccc3Oc3ncccc32)cc1	8%	15%
Cc1ccc(C)c(S(=O)(=O)N2CCN(C(=O)CSc3nnnn3C3CC3)CC2)c1	-14%	-15%
CCN(CC)CCNc1ccc([N+](=O)[O-])c2cccnc12	-18%	-4%
CCOc1cc(C(=O)Nc2ccc3nc(N4CCN(C)CC4)cc(C)c3c2)cc(OCC)c1OCC	34%[activator]	11%
Cc1cccc(C)c1NC(=O)C(=O)c1c(C)[nH]c2ccccc12	11%	103%[activator]
COc1ccccc1-c1noc(CSc2nc3ccc(C)cc3[nH]2)n1	?	?
CCCCc1c(C)nc2c(-c3ccc(OC)cc3)c(C)[nH]n2c1=O	-14%	-19%
COc1ccc(-c2c(NC(=O)c3ccc([N+](=O)[O-])cc3)oc3ccccc3c2=O)cc1	5%	18%
Cc1ccc(-c2noc(CNC(=O)CN(C)S(=O)(=O)c3ccc(Cl)cc3)n2)cc1	-2%	19%
Cc1ccc(NC(=O)CSc2nnc(C)n2C)c(Cl)c1	0%	22%
COc1ccc(CN2C(=O)C(NC(=O)c3ccc(C)cc3)(C(F)(F)F)N=C2c2ccccc2)cc1 (stereo not given)	1%	-18%
CCc1ccc(S(=O)(=O)c2nnn3c2nc(NCCC(C)C)c2cc(Cl)ccc23)cc1	3%	-4%
COc1ccc(-c2onc(C)c2C)cc1S(=O)(=O)NCc1ccc(C)o1	291%[activator]	32%[activator]
COc1ccc(Nc2cc(C)nc(NCc3ccccc3)n2)cc1	-24%	0%
COc1ccc(CCNC(=O)Cc2c(C)c3c(cc(C)c4c(C)c(C)oc43)oc2=O)cc1	-5%	-14%
CC(=O)c1ccc(OC(=O)C2OC3OC(C)(C)OC3C3OC(C)(C)OC23)cc1 (stereo not given)	-7%	-5%
O=C(O)CCn1ccc2cc(S(=O)(=O)N3CCCCC3)ccc21	13%	9%
Cc1oc(-c2cccs2)nc1CC(=O)NCc1ccc(CN2CCC(C)CC2)cc1	-14%	-11%
COc1cc(C(=O)NCC(c2ccc(C)cc2)N2CCOCC2)cc(OC)c1OC (stereo not given)	4%	4%
COc1cc(C#N)ccc1OCc1ccc(F)cc1Br	8%	0%
O=C(NC1(c2ccccc2)CCC1)c1cc2ccccc2oc1=O	14%	24%
COC(=O)c1c(NC(=O)CCCOc2ccc(C(C)(C)C)cc2)sc2c1CCC(C)C2 (stereo not given)	-14%	-2%
Cc1ccc(C(CCNCCN(C)C)C2CCOC(C)(C)C2)cc1 (stereo not given)	-6%	-15%
Cc1oc(-c2ccccc2)nc1CC(=O)N(C1CC1)C(C)c1ccco1 (stereo not given)	?	?
COc1ccc(C(=O)Nc2ccc(NC(=O)c3cccs3)cc2)cc1OC	6%	3%
CC1CCCN(C(=O)Cn2nc(C(=O)O)c3ccccc3c2=O)C1 (stereo not given)	-10%	1%
CC(C)C(C)NC(=O)CSc1nc2ccccc2c(=O)n1C1CCCC1 (stereo not given)	24%	-5%
COc1cccc(NC(=O)CSc2nc3nc(C)c(Cc4ccccc4C)c(C)n3n2)c1	0%	-5%

26 of the compounds above, as a markdown table:
| Compound | StopGo RLuc | StopGo FLuc |
| --- | --- | --- |
| O=C(CNc1cc(Cl)ccc1N1CCOCC1)Nc1ccccc1Cc1ccccc1 | 20% | -15% |
| Cc1ccc(NC(=O)CCC(=O)N2Cc3ccccc3Oc3ncccc32)cc1 | 8% | 15% |
| Cc1ccc(C)c(S(=O)(=O)N2CCN(C(=O)CSc3nnnn3C3CC3)CC2)c1 | -14% | -15% |
| CCN(CC)CCNc1ccc([N+](=O)[O-])c2cccnc12 | -18% | -4% |
| CCOc1cc(C(=O)Nc2ccc3nc(N4CCN(C)CC4)cc(C)c3c2)cc(OCC)c1OCC | 34%[activator] | 11% |
| Cc1cccc(C)c1NC(=O)C(=O)c1c(C)[nH]c2ccccc12 | 11% | 103%[activator] |
| COc1ccccc1-c1noc(CSc2nc3ccc(C)cc3[nH]2)n1 | ? | ? |
| CCCCc1c(C)nc2c(-c3ccc(OC)cc3)c(C)[nH]n2c1=O | -14% | -19% |
| COc1ccc(-c2c(NC(=O)c3ccc([N+](=O)[O-])cc3)oc3ccccc3c2=O)cc1 | 5% | 18% |
| Cc1ccc(-c2noc(CNC(=O)CN(C)S(=O)(=O)c3ccc(Cl)cc3)n2)cc1 | -2% | 19% |
| Cc1ccc(NC(=O)CSc2nnc(C)n2C)c(Cl)c1 | 0% | 22% |
| COc1ccc(CN2C(=O)C(NC(=O)c3ccc(C)cc3)(C(F)(F)F)N=C2c2ccccc2)cc1 (stereo not given) | 1% | -18% |
| CCc1ccc(S(=O)(=O)c2nnn3c2nc(NCCC(C)C)c2cc(Cl)ccc23)cc1 | 3% | -4% |
| COc1ccc(-c2onc(C)c2C)cc1S(=O)(=O)NCc1ccc(C)o1 | 291%[activator] | 32%[activator] |
| COc1ccc(Nc2cc(C)nc(NCc3ccccc3)n2)cc1 | -24% | 0% |
| COc1ccc(CCNC(=O)Cc2c(C)c3c(cc(C)c4c(C)c(C)oc43)oc2=O)cc1 | -5% | -14% |
| CC(=O)c1ccc(OC(=O)C2OC3OC(C)(C)OC3C3OC(C)(C)OC23)cc1 (stereo not given) | -7% | -5% |
| O=C(O)CCn1ccc2cc(S(=O)(=O)N3CCCCC3)ccc21 | 13% | 9% |
| Cc1oc(-c2cccs2)nc1CC(=O)NCc1ccc(CN2CCC(C)CC2)cc1 | -14% | -11% |
| COc1cc(C(=O)NCC(c2ccc(C)cc2)N2CCOCC2)cc(OC)c1OC (stereo not given) | 4% | 4% |
| COc1cc(C#N)ccc1OCc1ccc(F)cc1Br | 8% | 0% |
| O=C(NC1(c2ccccc2)CCC1)c1cc2ccccc2oc1=O | 14% | 24% |
| COC(=O)c1c(NC(=O)CCCOc2ccc(C(C)(C)C)cc2)sc2c1CCC(C)C2 (stereo not given) | -14% | -2% |
| Cc1ccc(C(CCNCCN(C)C)C2CCOC(C)(C)C2)cc1 (stereo not given) | -6% | -15% |
| Cc1oc(-c2ccccc2)nc1CC(=O)N(C1CC1)C(C)c1ccco1 (stereo not given) | ? | ? |
| COc1ccc(C(=O)Nc2ccc(NC(=O)c3cccs3)cc2)cc1OC | 6% | 3% |

Additional results follow:
SMILES	StopGo RLuc	StopGo FLuc
CCOc1ccc(NC(=O)CSc2ncc3c(n2)-c2ccccc2N(Cc2ccccc2C)S3(=O)=O)cc1	-16%	-13%
CC(C(=O)NCc1cccs1)N1CC=C(c2ccccc2)CC1 (stereo not given)	-4%	-7%
Cc1ccc(S(=O)(=O)N(C)[C@H]2C[C@H]3c4cc(-c5ccccc5C)ccc4CCN3C[C@H]2[C@H](C)O)cc1	-2%	-5%
CCN(CC)CCNC(=O)C(=O)NCC(c1cccnc1)N1CCN(c2ccc(F)cc2)CC1 (stereo not given)	3%	-15%
CCc1cccc(NC(=O)CCS(=O)(=O)c2ccc3c(c2)oc(=O)n3C)c1	40%[activator]	0%
Cc1nc(-c2ccc(S(=O)(=O)Nc3ccc(C)c(F)c3)cc2)co1	203%[activator]	0%
O=C(CSc1nnc(-c2ccc3c(c2)OCO3)o1)Oc1ccccc1	13%	-2%
Cc1cc(C)c(NC(=O)CNC(=O)c2nc(-c3ccccc3)oc2C)c(C)c1	-5%	4%
CS(=O)(=O)N1CCCC(C(=O)NCCc2ccc(F)cc2)C1 (stereo not given)	-13%	0%
O=C(COc1ccc2oc3c(c2c1)CCCC3)OCC(=O)c1ccc2c(c1)OCO2	-3%	-6%
CC(C)OC(=O)CCNC(=O)c1ccccc1-c1ncc(-c2ccccc2)o1	54%[activator]	43%[activator]
CC(=O)C1=C(OC(=O)C(C)C)c2ccccc2S(=O)(=O)N1Cc1ccccc1	35%[activator]	5%
CC(C)Cn1cnc2c1c(=O)n(CC(=O)O)c(=O)n2Cc1ccccc1	-3%	1%
O=C(CCc1ccsc1)NC1CCCC1	7%	4%
C=CCN1C(=O)COc2ccc(NC(=O)c3cc(=O)c4cc(C)ccc4o3)cc21	-10%	-8%
O=C(Cn1cnc2nc3c(cc2c1=O)CCCC3)N1CCN(c2ccccc2)CC1	-4%	-8%
O=C(NC1CCCCC1)c1ccc2c(c1)N(Cc1cccc(F)c1)C(=O)c1ccccc1S2	-4%	9%
NC(=O)c1cc(Cl)ccc1OCC(F)(F)F	-9%	-2%
Cc1cccc(C(=O)Nc2c(-c3ccc(F)cc3)nc3ccccn23)c1	-5%	15%
O=C(Cc1n[nH]c(=O)c2ccccc12)Nc1ccccc1F	-3%	92%[activator]

Quoted from the listing:
Cc1nc(-c2ccc(S(=O)(=O)Nc3ccc(C)c(F)c3)cc2)co1 @ StopGo FLuc: 0%
CCOc1ccc(NC(=O)CSc2ncc3c(n2)-c2ccccc2N(Cc2ccccc2C)S3(=O)=O)cc1 @ StopGo FLuc: -13%

(listing goes on)
SMILES	StopGo RLuc	StopGo FLuc
Cc1cc(C)c2oc(C(=O)Nc3c(C(=O)Nc4ccccc4)oc4ccccc34)cc(=O)c2c1	-12%	10%
O=C(c1ccc(Cl)cc1)N1CCC(c2nc3c(nnn3Cc3ccccc3F)c(=O)[nH]2)CC1	3%	-2%
O=C(CN1C(=O)S/C(=C\c2ccc(Cl)cc2)C1=O)Nc1ccc2oc(=O)ccc2c1	-15%	-9%
Cc1ccc(-c2nn(C)c(=O)c3c2CCCC3)cc1S(=O)(=O)N1CCCC1	51%[activator]	24%
Cc1ccc(Cl)cc1N1CCN(C(=O)c2cc(S(=O)(=O)N3CCCC3)c[nH]2)CC1	4%	-22%
CC(Nc1ccc(NS(C)(=O)=O)cc1)C(=O)Nc1ccc(Cl)cn1 (stereo not given)	-27%	-20%
O=C1c2ccccc2NC(c2csc(-c3ccc(F)cc3)n2)N1CC(F)(F)F (stereo not given)	-6%	0%
O=C(NCCc1ccc(F)cc1)c1cc(-c2cccnc2)nc2ccccc12	26%	23%
CC(NC(=S)NNC(=O)CSCc1ccccc1)c1ccccc1 (stereo not given)	0%	7%
Cc1ccccc1CNC(=O)Cn1c(C)c2cnn(-c3ccccc3)c(=O)c2c1C	2%	-30%
Cc1nc(SCc2ccc(F)cc2Cl)sc1CC(N)=O	10%	141%[activator]
CCOc1ccc(CNC(=O)C2CCN(c3nc4ccccc4nc3C(F)(F)F)CC2)cc1OC	-5%	-13%
Cc1ccc(CNC(=O)c2ccc3c(c2)nc(C)n3-c2cccc(F)c2)cc1	81%[activator]	40%[activator]
CCN1CCN(C(=O)c2ccc3c(c2)N(Cc2cccc(Cl)c2)C(=O)c2ccccc2S3(=O)=O)CC1	35%[activator]	-25%
O=C(CN1CCN(Cc2ccc(F)cc2)C1=O)NCc1ccccc1	0%	0%
CCOc1ccc(C(C)=O)cc1CN(C)CC(=O)Nc1ccc(Cl)c(Cl)c1	?	?
COc1ccc(NC(=O)c2cc(-c3ccc(F)cc3)no2)cc1OC	-7%	-12%
COc1ccccc1CNC(=O)Cn1c(=O)oc2cc(S(=O)(=O)N3CCC(C)CC3)ccc21	?	28µM*
COC(=O)c1ccc(C2C(c3ccc(C)cc3)=C(O)C(=O)N2CCc2ccccc2)cc1 (stereo not given)	40%[activator]	60%[activator]
CCOc1ccccc1-n1nnc2c(=O)n(Cc3nc(-c4ccc(OC)cc4OC)no3)cnc21	-1%	1%
O=C(CCc1ncc(-c2ccc(F)cc2)o1)N1CCN(c2ccccc2)CC1	-7%	63%[activator]
Cc1ccc(C)c(Nc2nn3c(=O)c4ccc(C(=O)NC5CCCCC5)cc4nc3s2)c1	-10%	-14%
CCC1(C)NC(=O)N(NC(=O)CSc2cc(C)c3ccccc3n2)C1=O (stereo not given)	-10%	4%
COc1ccc(CNS(=O)(=O)/C=C/c2cc(C)ccc2CNC(=O)OC(C)(C)C)cc1	20%	?
CC(C)N[C@H]1CS(=O)(=O)C[C@@H]1S(=O)(=O)c1ccccc1	5%	21%
COc1cccc(NC(=O)c2oc3ccccc3c2NC(=O)C2CCCCC2)c1	59%[activator]	97%[activator]
